Compound activity from PubChem.
Arbovirus inh: arbovirus infection inhibition; inhibition, % at 10 µM; AID 1251; arbovirus infection cell-based antiviral screen; 200,000 tested, 0.37% active;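 active means inhibition from about 30%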;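 further: bluetongue infection of BSR cells; cell survival read as ATP light after 72 h; 0% = infected wells without compound and 100% = uninfected wells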
RecA intein inh: Mtb RecA intein splicing inhibition. inhibition, %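 (about 9 µM by stock and volumes)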. AID 2221. cell-free RecA intein splicing, fluorescence. 290,000 tested, 0.75% active; in the data active means inhibition above about 30%; inconclusive means no clear call, values can overlap the other calls;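 further: 0% = vehicle wells and 100% = reference inhibitor control wells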
Target sequence (P9WHJ3 whole entry, looked up): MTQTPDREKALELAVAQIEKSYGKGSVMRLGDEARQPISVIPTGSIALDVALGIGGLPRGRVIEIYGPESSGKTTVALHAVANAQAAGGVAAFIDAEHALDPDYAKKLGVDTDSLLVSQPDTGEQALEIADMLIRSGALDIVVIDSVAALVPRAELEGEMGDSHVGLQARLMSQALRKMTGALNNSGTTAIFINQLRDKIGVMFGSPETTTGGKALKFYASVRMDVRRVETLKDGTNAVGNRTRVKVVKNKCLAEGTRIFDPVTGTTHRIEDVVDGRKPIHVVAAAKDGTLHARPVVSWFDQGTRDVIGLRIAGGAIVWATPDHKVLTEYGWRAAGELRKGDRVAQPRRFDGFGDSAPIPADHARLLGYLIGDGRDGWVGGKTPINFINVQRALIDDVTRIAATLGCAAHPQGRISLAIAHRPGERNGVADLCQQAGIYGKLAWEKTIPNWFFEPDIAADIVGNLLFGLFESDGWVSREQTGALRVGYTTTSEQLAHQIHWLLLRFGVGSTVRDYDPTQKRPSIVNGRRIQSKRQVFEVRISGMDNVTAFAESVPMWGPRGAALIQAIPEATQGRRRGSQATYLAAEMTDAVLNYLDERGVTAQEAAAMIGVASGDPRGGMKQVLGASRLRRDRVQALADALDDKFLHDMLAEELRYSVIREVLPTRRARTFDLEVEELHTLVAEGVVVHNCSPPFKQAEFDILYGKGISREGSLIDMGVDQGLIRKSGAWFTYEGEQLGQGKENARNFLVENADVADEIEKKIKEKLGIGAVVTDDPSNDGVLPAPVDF
Mtb bLac sens: beta-lactam sensitization of Mtb H37Rv; M. tuberculosis H37Rv growth with meropenem, percent inhibition; hits of this screen are not shown here; inhibition, % at 25 µM; 330,000 tested, 0.27% active; AID 434955;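 active means about 74% or more and at least 40 points above the plate without the antibiotic, then above 30% in a dose series; inconclusive means first-round hits that could not be retested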;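 further: growth measured after seven days incubation then overnight dye step; 0% = bacteria only wells and 100% = bacteria with antibiotic; twin plates without the antibiotic show which effects depend on it; some results filed as inactive read as strong as hits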
YopH PTP inh: YopH (Yersinia) phosphatase inhibition; fluorescence Ex485/Em525; inhibition, %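 (about 10 µM by stock and volumes)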; 140,000 tested, 0.16% active; AID 898;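 active means inhibition of 50% or more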;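 further: controls were vehicle for no effect and minimum signal wells for full effect; inactives centre near -20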
Mtb H37Rv: M. tuberculosis H37Rv growth inhibitors, H37Rv strain (AID 1626); M. tuberculosis H37Rv growth inhibition; higher % means a stronger effect; inhibition, % at 10 µM; hits with a dose series show IC50 in µM; 220,000 tested, 0.95% active;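 active means confirmed in a dose series; inconclusive means inhibition above 80% but not taken into the dose series; inactive means below 80% or under 30% at every dose of the series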;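 further: bacteria incubated seven days before Alamar blue readout; 0% = bacteria only wells and 100% = bacteria with antibiotic wells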
* hit, by the source's call; ? = inconclusive; . = not tested or not shown.

Labels used below – A = Arbovirus inh; B = RecA intein inh; C = Mtb bLac sens; D = YopH PTP inh; E = Mtb H37Rv
CC1(NC(=O)CC[N+](C)(C)CCO)CS(=O)(=O)CC1S(=O)(=O)[O-] (stereo not given)
  A = -1	B = -1.8	C = -2	D = -12	E = -2%
C=CCNC(=O)C1CCN(c2c([N+](=O)[O-])cc(C(F)(F)F)cc2[N+](=O)[O-])CC1
  A = -9	B = 0.4	C = -1	D = -43	E = -4%
COc1cc(C2N(c3ccccc3)CCN2c2ccccc2)cc(OC)c1OC
  A = -12	B = 16	C = -15	D = -20	E = 5%
CCC1SC(CC)C(=O)N(CC(=O)NCCc2ccccc2)C1=O (stereo not given)
  A = 14	B = -10	C = -10	D = .	E = -5%
CCn1cc(CNC(=O)CCSc2nc(-c3ccco3)cc(C(F)(F)F)n2)cn1
  A = -7	B = 1.3	C = -6	D = 2	E = -3%
CCCCn1c(N)c(N(CC(C)C)C(=O)COC(=O)c2ccccc2NCCO)c(=O)[nH]c1=O
  A = .	B = -6.5	C = -2	D = .	E = .
N#C/C(=C\c1cccc([N+](=O)[O-])c1)c1ccccn1
  A = -5	B = 10	C = 2	D = .	E = 6%
CNC(=O)c1cc(-c2ccc(Cl)cc2)n(-c2ccccc2)n1
  A = .	B = 8.4	C = 0	D = .	E = .
CCCc1c2c(cc3c(=O)cc(C(=O)OCC)oc13)CCCC2
  A = .	B = -2.5	C = 99	D = .	E = .
CN(C)CCCN(C(=O)c1ccco1)c1nc2ccc(Br)cc2s1
  A = -20	B = 1.9	C = -7	D = .	E = -9%
Cc1ccccc1OCC(=O)Nc1ccc(NC(=O)c2ccco2)cc1
  A = 12	B = 3.2	C = 3	D = .	E = 2%
Cc1cc(=O)[nH]c(CN2CCOCC2)n1
  A = 5	B = 2.4	C = 1	D = .	E = -11%
Cc1ccc(S(=O)(=O)/N=C2/NC(=O)/C(=C/c3cccnc3)S2)cc1
  A = 1	B = 1.5	C = 0	D = -78	E = -9%
CCOc1cc(/C=C2\C(=O)ON=C2c2ccccc2)ccc1OC
  A = .	B = 1.1	C = 5	D = .	E = .
CN(C)S(=O)(=O)n1cc(/C=C(\NC(=O)c2ccccc2Cl)C(=O)N2CCOCC2)c2ccccc21
  A = .	B = 0.3	C = 6	D = .	E = .
COc1ccc(C(=O)NCCNC(C)=O)cc1S(=O)(=O)NCc1ccc(Cl)cc1
  A = 4	B = -0.6	C = ?	D = -38	E = -1%
COc1ccccc1CNC(=O)CSc1ccsc1[N+](=O)[O-]
  A = -6	B = 0.0	C = 1	D = .	E = -3%
O=C(COC(=O)CSc1ccc2ccccc2c1)Nc1ccccc1OC(F)F
  A = -7	B = 6.8	C = -2	D = -26	E = 0%
Cc1cccc(NC(=O)c2cc(=O)c3ccccc3o2)c1
  A = .	B = -0.6	C = 1	D = .	E = .
CC(C)(C)CC(C)(C)NC(=O)Nc1cccc([N+](=O)[O-])c1
  A = -6	B = 4.0	C = 6	D = .	E = -3%
O=C(COC(=O)c1cc([N+](=O)[O-])ccc1N1CCOCC1)Nc1c(Cl)cccc1Cl
  A = .	B = -0.8	C = 1	D = .	E = .
CC(C)CC(=O)Nc1nnc(SCC(=O)NCc2ccc3c(c2)OCO3)s1
  A = 0	B = -5.3	C = -12	D = .	E = 5%
CCC(=O)Nc1ccc(NC(=O)c2cccc(OC)c2)nc1
  A = -1	B = -4.3	C = -5	D = 8	E = -5%
CSCCC(NC(=O)c1cccc(S(=O)(=O)N2CCOCC2)c1)C(=O)Nc1ccc(F)cc1 (stereo not given)
  A = 8	B = 1.2	C = -1	D = -3	E = 2%
CCOC(=O)C1CCCN(Cc2nc3ccc([N+](=O)[O-])cc3c(=O)n2-c2ccc(OC)cc2OC)C1 (stereo not given)
  A = 1	B = -2.0	C = -2	D = .	E = 7%

Some of these compounds in order of molar mass, low to high.
Labels used below – A = Arbovirus inh; B = RecA intein inh; C = Mtb bLac sens; D = YopH PTP inh; E = Mtb H37Rv
N#C/C(=C\c1cccc([N+](=O)[O-])c1)c1ccccn1
  A = -5	B = 10	C = 2	D = .	E = 6%
CCOc1cc(/C=C2\C(=O)ON=C2c2ccccc2)ccc1OC
  A = .	B = 1.1	C = 5	D = .	E = .
CCCCn1c(N)c(N(CC(C)C)C(=O)COC(=O)c2ccccc2NCCO)c(=O)[nH]c1=O
  A = .	B = -6.5	C = -2	D = .	E = .

The listing picks up with the seven entries that preceded the break.
Labels used below – A = Arbovirus inh; B = RecA intein inh; C = Mtb bLac sens; D = YopH PTP inh; E = Mtb H37Rv
Cc1cccc(NC(=O)c2cc(=O)c3ccccc3o2)c1
  A = .	B = -0.6	C = 1	D = .	E = .
CC(C)(C)CC(C)(C)NC(=O)Nc1cccc([N+](=O)[O-])c1
  A = -6	B = 4.0	C = 6	D = .	E = -3%
O=C(COC(=O)c1cc([N+](=O)[O-])ccc1N1CCOCC1)Nc1c(Cl)cccc1Cl
  A = .	B = -0.8	C = 1	D = .	E = .
CC(C)CC(=O)Nc1nnc(SCC(=O)NCc2ccc3c(c2)OCO3)s1
  A = 0	B = -5.3	C = -12	D = .	E = 5%
CCC(=O)Nc1ccc(NC(=O)c2cccc(OC)c2)nc1
  A = -1	B = -4.3	C = -5	D = 8	E = -5%
CSCCC(NC(=O)c1cccc(S(=O)(=O)N2CCOCC2)c1)C(=O)Nc1ccc(F)cc1 (stereo not given)
  A = 8	B = 1.2	C = -1	D = -3	E = 2%
CCOC(=O)C1CCCN(Cc2nc3ccc([N+](=O)[O-])cc3c(=O)n2-c2ccc(OC)cc2OC)C1 (stereo not given)
  A = 1	B = -2.0	C = -2	D = .	E = 7%
CNC(=O)N(O)C1N(C)C(=O)N(CC(=O)OC)C1(C)C (stereo not given)
  A = 4	B = -3.7	C = -3	D = -16	E = -3%
CC(=O)Nc1ccc(S(=O)(=O)N2CCN(c3cc(C)nc4ccccc34)CC2)cc1
  A = 9	B = 1.2	C = -10	D = -42	E = 4%
C=CCN1C(=O)C2C3C=CC(C2C1=O)C1C2C(=O)N(CC=C)C(=O)C2C31 (stereo not given)
  A = 3	B = -2.2	C = -5	D = .	E = -11%
Cc1ccc(CNC(=O)c2cc3c(s2)CS(=O)(=O)C3)cc1
  A = .	B = -0.4	C = -3	D = .	E = .
COc1ccc(/C(C)=N/NC(=O)C2CC2)cc1
  A = 0	B = 2.1	C = 9	D = .	E = -5%
Cc1cccc2c(=O)cc(C)n(Cc3ccccc3)c12
  A = 3	B = 3.2	C = 85	D = -13	E = 1%
O=C1CCCN1c1ccc(C(=O)N(Cc2nnc(-c3ccc(Cl)cc3)o2)C2CC2)cc1
  A = .	B = 0.2	C = -9	D = .	E = .
O=C(COc1ccc([N+](=O)[O-])cc1)NNC(=O)c1cccnc1
  A = .	B = 0.7	C = 3	D = .	E = .
O=C(NCC1CCCCC1)C1CCCN(C(=O)NC2CCCCC2)C1 (stereo not given)
  A = 5	B = 0.7	C = 12	D = -2	E = 3%
CC(C)CC(=O)Nc1nnc(SCC(=O)NCc2ccco2)s1
  A = 0	B = -2.3	C = -2	D = -16	E = -6%
COC(=O)Nc1ccc(S(=O)(=O)N2CCCC(C(=O)N3CCOCC3)C2)cc1 (stereo not given)
  A = .	B = -2.2	C = 0	D = .	E = 0%
Cc1ccc(Cn2c(C3CCCN3c3nc(-c4cc(Cl)c(N)c(Cl)c4)cs3)nc3cc(Cl)c(Cl)cc32)cc1 (stereo not given)
  A = .	B = 2.7	C = -3	D = .	E = -5%
CCOC(=O)c1cc(NC(=O)N2CCCCC2)c(C)nc1C
  A = 2	B = -0.2	C = -10	D = -17	E = 1%
COc1cc(/C=C2\SC(=S)N(C(C(=O)O)c3ccccc3)C2=O)cc(OC)c1OC (stereo not given)
  A = .	B = 9.2	C = 4	D = .	E = 5%
CCOC(=O)c1nn(-c2ccc(Cl)cc2)c2nc(Nc3ccccc3)cc(=O)n12
  A = 42*	B = -0.3	C = 97	D = -17	E = .
Cc1ccc(NC(=O)CCC(=O)c2cccs2)cc1
  A = -2	B = 1.3	C = 4	D = -13	E = 1%
NC(=O)Cn1c(-c2nonc2N)nc2ccccc21
  A = 8	B = -4.5	C = 2	D = .	E = 8%
Cc1ccc(Sc2ccc(CN3CCCCC3)cc2[N+](=O)[O-])cc1
  A = -13	B = 2.7	C = 72	D = .	E = 0%
COc1cc(-c2nc(Cc3c(F)cccc3Cl)no2)cc(OC)c1OC
  A = .	B = 1.5	C = -4	D = -37	E = 2%
CCC(C)COC(c1ccccc1)(c1ccccc1)C(Oc1nc(C)cc(C)n1)C(=O)O (stereo not given)
  A = .	B = 4.9	C = -1	D = .	E = .
CN(C)c1ccc(CNCC2CCCO2)cc1 (stereo not given)
  A = .	B = 3.9	C = 3	D = .	E = .
COc1ccc(/C=C2\C(=N)N3N=C(CC(=O)N4CCOCC4)SC3=NC2=O)cc1
  A = .	B = 2.9	C = -13	D = .	E = .
CC(=O)Nc1ccc(-c2sc(Nc3cccc4ccccc34)n[n+]2-c2ccccc2)cc1
  A = .	B = 5.4	C = -2	D = .	E = .
CC(=O)C(Cc1ccc(Cl)nc1)Cc1ccc(Cl)nc1
  A = 0	B = -1.3	C = 10	D = .	E = -4%
CC(C)CN(C(=O)Cn1c(C(F)(F)F)nc2ccccc21)C1CCS(=O)(=O)C1 (stereo not given)
  A = .	B = 0.7	C = -1	D = .	E = .
COc1cccc(C(=O)NC(=S)Nc2ccccc2N2CCCC2)c1
  A = -1	B = 8.0	C = 41	D = .	E = 43%
COc1ccc(C(=O)NC(=S)Nc2ccccc2N2CCOCC2)cc1Br
  A = 11	B = 11	C = 9	D = -5	E = 16%
C=CCN(c1ccc(C(=O)OC)cc1)S(=O)(=O)c1ccccc1
  A = -1	B = 2.3	C = 2	D = .	E = -6%
Cc1onc(-c2ccccc2)c1C(=O)NCc1ccc2c(c1)OCO2
  A = 2	B = 0.6	C = -1	D = -39	E = 3%
O=S(=O)(c1cc(Cl)ccc1Cl)N1CC2CCCN2c2ccc(C(F)(F)F)cc21 (stereo not given)
  A = 3	B = 5.5	C = 5	D = -26	E = -3%
COc1cccc(NC(=O)CSc2nc3c(sc4ccccc43)c(=O)n2CCN(C)C)c1
  A = 5	B = 24	C = -2	D = .	E = 7%
COC(=O)C1C2C=CC3(CN(Cc4ccco4)C(=O)C13)O2 (stereo not given)
  A = 2	B = -0.2	C = -1	D = -16	E = 9%
O=C(Nc1cc2c(cc1C(=O)O)OCCCO2)c1ccc(F)cc1F
  A = .	B = -0.3	C = 60	D = .	E = .
Cc1cccn2c(=O)c(/C=C(\C#N)C(N)=O)c(N3CCN(c4cccc(Cl)c4)CC3)nc12
  A = .	B = 7.1	C = 63	D = .	E = .
CCN(Cc1ccccc1)C(=O)c1cc2c(=O)oc3ccc(C)cc3c2s1
  A = 0	B = 3.8	C = 0	D = -44	E = 78%
CCCCc1cc(=O)oc2cc(C)cc(OCC(=O)NCC3CCC(C(=O)O)CC3)c12 (stereo not given)
  A = .	B = -4.3	C = -7	D = .	E = .
CCOc1ccsc1C(=O)O
  A = .	B = 1.3	C = -4	D = .	E = -14%
Cn1c[n+](C)cc1-c1ccc(/C(N)=N/O)cc1
  A = -1	B = -6.4	C = 1	D = -19	E = -4%
COc1ccc(/C=C/C(=O)NCc2cn(C)nc2C)cc1COc1ccc(Cl)cc1Br
  A = -4	B = 0.1	C = -5	D = -22	E = 4%
CC(NC(=O)C1CCC(=O)N1Cc1ccccc1Cl)c1ccccc1 (stereo not given)
  A = .	B = -0.6	C = 1	D = .	E = .
COc1ccccc1NC(=O)NCC(c1ccco1)N1CCCCC1 (stereo not given)
  A = 13	B = 1.6	C = -1	D = .	E = 8%
COc1ccc(CCn2cnc3c([nH]c4ccccc43)c2=O)cc1
  A = .	B = -2.9	C = 1	D = .	E = 1%
Cc1ccc2cc(CN(c3ccc(C)c(C)c3)S(C)(=O)=O)c(=O)[nH]c2c1
  A = -2	B = 0.6	C = -1	D = .	E = -3%
CCOc1ccc(CN2CCNC(=O)C2CC(=O)N(C)C2CCCCC2)cc1 (stereo not given)
  A = .	B = 3.3	C = -5	D = .	E = .
CCCS(=O)(=O)N1CCCC(C(=O)NCCCN(Cc2ccccc2)C(C)C)C1 (stereo not given)
  A = 5	B = -1.3	C = -21	D = 13	E = .
CCCCC(CC)C1OCC(C[N+]2(C)CCOCC2)O1 (stereo not given)
  A = -5	B = -4.0	C = 3	D = -19	E = 3%
COc1ccc(NC(=O)c2ccc(Oc3ncccn3)cc2)cc1
  A = 2	B = -0.6	C = -10	D = .	E = -5%
COc1ccc(N(CC(=O)Nc2ccccc2C(=O)NCc2ccco2)S(C)(=O)=O)cc1
  A = -7	B = -1.3	C = -11	D = -17	E = -3%
CC(=O)Nc1ccc(S(=O)(=O)N(C)CC(=O)OCC(=O)NCc2ccco2)cc1
  A = .	B = -1.1	C = -3	D = .	E = .

Some of the compounds tested. The share of hits here may be higher or lower than overall.
